TRPV1 PAM – human TRPV1 potentiation | TRPV1-expressing cells, Fluo-8 calcium influx, capsaicin EC20 potentiation; host cell line not named in the record; control for the full effect not named in the record | potentiation, % at 8.33 µM | 320,000 tested, 0.02% active | AID 540277; active means potentiation above 80%; inconclusive means 30% to 80%; inactive means below 30%; also: 0% is about no effect
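Cells expressing TRPV1 were dye-loaded with Fluo-8 and read kinetically: 10 s baseline, 3 min after compound (agonist portion), then 2 min after EC20 capsaicin (allosteric enhancer portion). Calcium-bound dye fluorescence at 480/520 nm.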
D2 potentiator – human D2 receptor positive allosteric modulation. DiscoveRx D2 beta-arrestin cells, luminescence, 90 min; 100% = 57 uM dopamine signal. potentiation, % (concentration not given with the values). 360,000 tested, 0.23% active; active = potentiation of 50% or more; inconclusive = 30% to 50%; inactive = 30% or less;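 also: compound concentration not given in the record; tested on top of an EC20 dose of dopamine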
Target sequence (P14416 whole entry, looked up): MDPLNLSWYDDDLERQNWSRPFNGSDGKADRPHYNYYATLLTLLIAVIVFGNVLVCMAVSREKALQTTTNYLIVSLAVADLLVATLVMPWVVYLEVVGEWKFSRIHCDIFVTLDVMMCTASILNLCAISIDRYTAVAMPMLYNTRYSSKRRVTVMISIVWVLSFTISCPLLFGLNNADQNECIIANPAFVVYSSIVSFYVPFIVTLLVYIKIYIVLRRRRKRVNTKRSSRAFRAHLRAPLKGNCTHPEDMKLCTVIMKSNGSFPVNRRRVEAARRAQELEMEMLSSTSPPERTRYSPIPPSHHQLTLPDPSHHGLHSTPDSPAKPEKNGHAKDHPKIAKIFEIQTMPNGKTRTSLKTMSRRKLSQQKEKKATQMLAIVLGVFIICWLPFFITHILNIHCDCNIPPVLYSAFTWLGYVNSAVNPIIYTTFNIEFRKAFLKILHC
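PathHunter D2 cells, attached overnight at 37 deg C, received compound in DMSO plus dopamine at EC20 (50 nM final) for 90 min at 37 deg C. Beta-arrestin recruitment was read as luminescence after 1 h with detection reagent at ambient temperature.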
TRPML1 blocker – human mucolipin-1 channel inhibition; 390,000 tested, 0.02% active; activity change, negative = inhibition, % (test concentration not listed); Q9GZU1; TRPML1-inducible cells, Ca2+ dye fluorescence, FDSS; hits give low values; inhibition of EC80 agonist-evoked calcium signal; in the data active means activity change below about -50%; inconclusive means about -30% to -50%; inactive means above about -30%;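 also: stimulus is agonist 54-4 at its EC80 concentration; % is scaled to controls: 0 for no effect and ±100 for the full control effect; compound concentration not given in the record; the text of the record puts the active cut at -80%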
Target sequence (Q9GZU1 whole entry, looked up): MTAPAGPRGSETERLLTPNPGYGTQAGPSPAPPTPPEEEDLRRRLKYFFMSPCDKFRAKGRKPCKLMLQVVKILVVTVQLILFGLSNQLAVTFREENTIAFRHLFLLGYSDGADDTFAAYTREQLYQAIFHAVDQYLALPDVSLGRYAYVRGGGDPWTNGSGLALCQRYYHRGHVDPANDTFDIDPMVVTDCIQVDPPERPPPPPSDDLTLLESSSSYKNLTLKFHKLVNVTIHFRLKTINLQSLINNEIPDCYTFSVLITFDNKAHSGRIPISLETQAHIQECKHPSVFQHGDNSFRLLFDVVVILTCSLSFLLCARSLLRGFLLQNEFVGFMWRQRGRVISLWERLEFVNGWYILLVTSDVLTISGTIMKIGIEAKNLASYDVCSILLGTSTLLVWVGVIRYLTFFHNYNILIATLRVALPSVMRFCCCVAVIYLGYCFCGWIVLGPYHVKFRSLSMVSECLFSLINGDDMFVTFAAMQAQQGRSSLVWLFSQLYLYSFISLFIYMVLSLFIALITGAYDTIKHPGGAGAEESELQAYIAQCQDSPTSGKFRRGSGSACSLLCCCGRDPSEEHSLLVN
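Calcium fluorescence in TRPML1-DL cells induced overnight with Tet: a 110 s read after compound pin addition, then a 110 s antagonist read after challenge with 54-4 at 4 uM final (EC80).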
TRPML1 agonist – activates the human TRPML1 channel; 410,000 tested, 0.12% active; activation, % (no concentration beside the values); Q9GZU1; TRPML1-expressing cells, Ca2+ dye fluorescence, FDSS; host cell line not named in the record; reference of the full effect not given here; in the data active = activation above about 50%; inconclusive = about 30% to 50%; inactive = below about 30%; also: 0% is about no effect; the text of the record puts the active cut at 80%
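Agonist activity was taken from a 110 s kinetic Ca2+ dye read on the FDSS after pinning compounds onto TRPML1-DL cells. The cells were seeded at 1,500/well with Tet inducer, incubated about 16 h, then dye-loaded at room temperature.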
CtBP-E1A blk – blocks the CtBP interaction with E1A | AID 651724 | 340,000 tested, 0.49% active | activity change, % (concentration not given with the values) | AlphaScreen GST-E1A/His-CtBP binding, 1536-well; hits give low values; control for the full effect not named in the record; in the data active means activity change below about -65%; inconclusive means about -30% to -65%; inactive means above about -30%; also: % is scaled to controls: 0 for no effect and ±100 for the full control effect
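AlphaScreen with 125 nM GST-E1A and 125 nM His-CtBP (5X stocks) in Tris pH 8.0, 300 mM NaCl, BSA, Tween 20, TCEP. Compounds preincubated 2 h at 37 deg C, then glutathione donor/nickel acceptor beads added for 1 h at 37 deg C in dark.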
Six1-Eya2 inh – Six1/Eya2 interaction inhibition; AlphaScreen GST-Six1/His-Eya2 binding, biochemical; hits give low values; control for the full effect not named in the record; Q15475+O00167; 360,000 tested, 0.56% active; activity change, % (concentration not given with the values); AID 651725; in the data active = activity change below about -65%; inconclusive = about -30% to -65%; inactive = above about -30%; also: % is scaled to controls: 0 for no effect and ±100 for the full control effect
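Homogeneous AlphaScreen proximity assay pairing GST-Six1 with His-tagged Eya2 (added as 5X mix: 250 nM and 500 nM) in 50 mM Tris pH 8.0, 300 mM NaCl, 1 mM TCEP. Glutathione donor and nickel acceptor beads; 1 h, 37 °C, dark.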
* hit, by the source's call; ? = inconclusive; / = not tested or not shown; & = joins results of further samples. The order is random. Share with any hit: about 0.95%.

SMILES	TRPV1 PAM	D2 potentiator	TRPML1 blocker	TRPML1 agonist	CtBP-E1A blk	Six1-Eya2 inh
O=C(CSc1n[nH]c(-c2ccco2)n1)Nc1ccccc1	1	-4	-8	0.1	15	11
O=c1c2ccccc2cnn1Cc1n[nH]c(=S)n1-c1ccccc1	-9	-9	-24	0.3	4	5
COc1ccc(C2/C(=C(/O)c3ccc4c(c3)CC(C)O4)C(=O)C(=O)N2CCN2CCOCC2)cc1 (configuration not stated)	-24	-11	-1	-0.3	5	7
CCOc1ccc(N2CC(C(=O)N/N=C/c3sccc3C)CC2=O)cc1 (configuration not stated)	-1	-12	-3	-1.2	/	-9
Cc1ccc(/C=N/n2c(C3CCCCC3)n[nH]c2=S)cc1	-5	-8	3	1.6	-17	-10
NC1=C(c2ccc(F)cc2)C(=O)CS1	1	-13	-5	0.0	0	0
Cc1cc(C)cc(-n2c(C)cc(/C=N/NC(=O)CSc3ncccn3)c2C)c1	4	-21	24	3.3	-20	-12
COc1ccc(-n2c(=O)[nH]cc(C(=O)Nc3ccc(NC(C)=O)cc3)c2=O)cc1	5	3	8	0.4	10	5
CCO/C=C/C(O)(CNC(=O)COc1ccccc1F)C(F)(F)F (configuration not stated)	7	-15	11	0.2	3	3
Cc1ccc2c(Cl)cc(Cl)c(OCC(=O)N3CCCC3)c2n1	-5	-7	26	-0.6	6	0
COc1ccc(CCNC(=O)C2CC(=O)N(C3CCCCCCC3)C2)cc1OC (configuration not stated)	1	0	-11	-0.2	-2	-4
O=C(CCNC(=O)c1ccc([N+](=O)[O-])cc1)Nc1ccc(Cl)c(S(=O)(=O)N2CCOCC2)c1	0	3	36	1.7	/	1
CCCCN(C)C(=O)c1ccc(CS(=O)(=O)c2ccccc2C)o1	4	-7	-7	-0.8	11	1
Cc1ccc(C(=O)NNC(=O)C2CC2)cc1Br	?	1	-11	-0.6	-10	2
CCN1C(=O)C(=O)c2cc(C)ccc21	/	-9	4	-0.5	5	5
Fc1ccccc1CSc1ccc(-c2ccco2)nn1	3	-9	13	2.9	-2	2
Cc1cc(C)c(C)c(OCCOCCN2CCN(C)CC2)c1	-2	-23	-7	0.0	3	8
Cc1nc2nc(SCC(=O)C(C)(C)C)[nH]c2cc1Br	2	-8	5	1.2	-3	-13
Cc1cccc(C)c1NC(=S)N/N=C/c1ccccc1C(=O)O	0	-6	/	/	10	1
CCn1c(/C=C/N(C)c2ccccc2)[n+](CC)c2ccc(Cl)cc21	5	-12	6	0.2	12	-1
CCOc1ccc(N(CC(=O)NCc2ccc(F)cc2)C(=O)CCC(=O)Nc2nccs2)cc1	9	-17	13	0.6	0	4
COc1ccc(CCNC(=O)c2cccc(S(=O)(=O)N3CCc4ccccc4C3)c2)cc1	-44	0	-7	2.8	-6	-8
CN1CCN(c2ccc(Cl)cc2NC(=O)c2cc(=O)[nH]c3ccccc23)CC1	-1	0	9	2.1	-3	-1
COc1cccc(F)c1C(=O)NC(=O)Nc1ccc2nc(C)oc2c1	19	4	-22	1.4	-2	3
Cn1nccc1NC(=O)CSCC(=O)O	3	1	-13	0.8	9	8
COCCNC(=O)CS(=O)Cc1nc(-c2ccccc2C)oc1C (configuration not stated)	2	-4	7	0.0	5	0
CC(C)OC(=O)c1c(NC(=O)c2cnn3c2NC(c2ccccc2)CC3C(F)(F)F)sc2c1CCCC2 (configuration not stated)	-1	-14	-14	-0.3	7	2
COc1ccccc1N1CCN(C(=O)Cn2nnc(-c3ccncc3)n2)CC1	0	-3	-7	1.9	0	3
C=C(C)COc1ccc(-c2ncnc(C(F)(F)F)c2-c2ccccc2)c(O)c1	2	10	15	1.6	-5	-12
CC(=O)Nc1ccc(N(C)C)cc1[N+](=O)[O-]	-18	16	0	1.4	-21	-9

Five compounds out of the list, sorted by SMILES length, rising:
SMILES	TRPV1 PAM	D2 potentiator	TRPML1 blocker	TRPML1 agonist	CtBP-E1A blk	Six1-Eya2 inh
CC(=O)Nc1ccc(N(C)C)cc1[N+](=O)[O-]	-18	16	0	1.4	-21	-9
COCCNC(=O)CS(=O)Cc1nc(-c2ccccc2C)oc1C (configuration not stated)	2	-4	7	0.0	5	0
COc1ccccc1N1CCN(C(=O)Cn2nnc(-c3ccncc3)n2)CC1	0	-3	-7	1.9	0	3
C=C(C)COc1ccc(-c2ncnc(C(F)(F)F)c2-c2ccccc2)c(O)c1	2	10	15	1.6	-5	-12
CN1CCN(c2ccc(Cl)cc2NC(=O)c2cc(=O)[nH]c3ccccc23)CC1	-1	0	9	2.1	-3	-1

More structures.
SMILES	TRPV1 PAM	D2 potentiator	TRPML1 blocker	TRPML1 agonist	CtBP-E1A blk	Six1-Eya2 inh
CC(c1nnc(SCC(=O)Nc2cc([N+](=O)[O-])ccc2F)n1Cc1ccccc1)N(C)C (configuration not stated)	-8	-7	3	1.5	0	-13
COC(=O)c1c(NC(=O)/C=C/C(=O)O)sc(C)c1-c1ccc(C)c(C)c1	6	-6	56	-0.7	-2	-12
Cc1ccccc1CNC(=O)C1CCC(=O)N(C2CC2)C1 (configuration not stated)	-11	0	1	-0.8	2	8
CCc1ccc(NC(=O)/C(C#N)=C\c2ccc(OC)c(C(=O)O)c2)cc1	12	-5	5	-0.6	-11	-23
S=C1NCN(Cc2cccnc2)CN1c1cccc(Cl)c1	3	-15	10	-0.5	/	6
CS(=O)(=O)c1ccc(Cl)c(NC(=O)COC(=O)CNC(=O)c2sc3ccccc3c2Cl)c1	2	-5	21	3.9	-11	-4
COc1ccc(CCNc2nc(-c3ccccn3)cs2)cc1OC	-23	-10	-6	1.3	/	-79*
S=C(Nc1ccc2nsnc2c1)N1CCCC1	-4	-2	3	-1.0	0	-2
CN(C(=O)c1ccc(S(=O)(=O)N2CCOCC2)cc1)C1CCS(=O)(=O)C1 (configuration not stated)	6	-4	12	-0.3	7	2
CC(=O)N1CC(=O)N(Cc2ccccc2)/C(=C/c2ccccc2)C1=O	-18	-1	10	0.7	-3	0
COc1ccc(NC(=O)c2c(N)cnn2C)cc1	-11	-3	30	0.4	-7	5
CCCS(=O)(=O)NC(=O)C1(C)CCCN(C(=O)c2ccc(F)cc2Cl)C1 (configuration not stated)	/	-3	/	-0.5	1	6
CC1CCCC(C)N1C(=O)COC(=O)c1ccco1 (configuration not stated)	/	-9	14	-0.4	-4	3
CCOC(=O)c1[nH]c2ccc(OCC)cc2c1NC(=O)CN1CCCC(C)C1 (configuration not stated)	-1	-14	-1	-0.1	3	-1
CCCC(=O)NC(=S)Nc1ccccc1F	-19	2	48	1.0	6	13
CC(=O)CSc1nc2ccc(Nc3nc(N4CCOCC4)nc(N4CCOCC4)n3)cc2s1	5	-13	-8	1.2	-26	-7
CC1(C)NC(=O)N(CC(=O)OCC(=O)Nc2cccc(F)c2)C1=O	-1	21	-5	-1.0	1	2
O=C(CSc1nc(O)cc(=O)n1-c1ccccc1)Nc1ccc(Br)cn1	3	0	-13	0.2	0	-9
CCOc1cc(/C=N/NC(=O)c2cccnc2)ccc1OCC(N)=O	6	-28	-6	0.8	7	-7
Cc1cc(C)n2nc(SCC(=O)N(C)C)nc2n1	7	12	3	-0.7	6	0
C/C=C(\C)C(=O)O[C@@H]([C@H](O)c1cc2ccc(=O)oc2cc1OC)C(C)(C)O	-6	-2	19	-0.6	4	10
C=CCn1c(SCC(=O)NC2CC2)nc2ccccc2c1=O	-14	0	12	-0.1	1	1
COc1ccc2[nH]c(=O)c(CN(CC3CCCO3)S(=O)(=O)c3ccccc3F)cc2c1 (configuration not stated)	-14	12	15	-0.1	-25	-5
CC(=O)n1c2c(c3ccccc31)OC(N)=C(C#N)C2c1cccc(Cl)c1Cl (configuration not stated)	7	-7	-18	0.6	/	7
COc1ccc(OC)c(NC(=O)C(C)SCc2nc3sc(C)c(C)c3c(=O)[nH]2)c1 (configuration not stated)	8	-2	1	-0.2	-9	-5
CCC1CCCCN1CCCNC(=O)c1c(O)nc2c(C)cccn2c1=O (configuration not stated)	-8	-6	2&-3	-0.4&-0.3	1	-3
CC1(C(=O)N2CCCCC2)CCN1C(=O)Cc1ccc(-c2ccccc2)cc1 (configuration not stated)	/	-9	/	-0.5	2	4
COC(=O)C(C)Oc1cc(C)ccc1COc1ccc(-n2nc(C)n(C(F)F)c2=O)cc1 (configuration not stated)	/	-1	-5	3.8	-2	7
Cc1c(C)n2c(SCC(=O)NC3CCCCC3)nnc2[nH]c1=O	2	1	13	-0.6	6	-2
O=C(NCCS(=O)(=O)c1ccc(Br)cc1)c1ccccc1Cl	-24	-9	0	0.0	2	-13
O=C(CCN1C(=O)C2C3CCC(C3)C2C1=O)Nc1cccc(Cl)c1 (configuration not stated)	-17	-11	-8	0.3	0	10
COCCNC(=O)c1ccccc1NC(=O)Cc1ccccc1[N+](=O)[O-]	13	-5	10	0.8	/	6
CCn1c(COc2ccc(Cl)cc2)nnc1SCc1nc2ccccc2[nH]1	14	9	-11	0.2	-9	-2
c1ccc2c(c1)CCc1snnc1-2	-7	-4	4	1.1	-4	3
Cc1csc(NC(=O)CSc2nnc(-c3ccoc3C)n2C(C)c2ccccc2)n1 (configuration not stated)	-2	-3	/	/	-22	-8
COc1ccc(C(CNC(=O)c2cccc(S(=O)(=O)NCc3ccccc3)c2)N2CCOCC2)cc1 (configuration not stated)	2	-8	-5	-0.4	10	0
COc1ccc(Cl)cc1NC(=O)[C@@H]1CCCN1C(=O)c1cccs1	2	-10	-16	3.1	-1	6
CCOCCCn1c(-c2ccc(Cl)cc2)n[nH]c1=S	0	-15	-3	0.6	-2	3
O=C(C1CCCN(c2ncnc3c2nc2n3CCCCC2)C1)N1CCN(c2ccc(Cl)cc2)CC1 (configuration not stated)	-12	3	21	1.0	-19	-17
Cc1ccc(S(=O)(=O)NCCc2nnc3ccc(SCc4cccnc4)nn23)cc1	-6	-34	-3	-0.5	-5	-5
Nc1c(S(=O)(=O)c2ccccc2)c2nc3ccccc3nc2n1C1CC1	-13	-1	1	0.1	0	-16
Cn1c(=S)c2[nH]c(SCCC(C)(C)C)nc2n(C)c1=O	/	-15	-24	1.4	-15	0
Cc1ccc(NC(=O)CO/N=C/c2ccccc2C)c(C)c1	-2	-4	-9	1.8	2	5
COCCNc1nc(=S)[nH]c2cc(OC)c(OC)cc12	0	-11	-10	-0.4	-87*	-80*
CCNC(=S)N/N=C/c1cccc(/C=N/NC(=S)NCC)c1	2	-4	-2	0.7	18	7

Profiles as entered above:
CCNC(=S)N/N=C/c1cccc(/C=N/NC(=S)NCC)c1 is listed with TRPV1 PAM: 2; D2 potentiator: -4; TRPML1 blocker: -2; TRPML1 agonist: 0.7; CtBP-E1A blk: 18; Six1-Eya2 inh: 7
COC(=O)C(C)Oc1cc(C)ccc1COc1ccc(-n2nc(C)n(C(F)F)c2=O)cc1 (configuration not stated) is listed with TRPV1 PAM: /; D2 potentiator: -1; TRPML1 blocker: -5; TRPML1 agonist: 3.8; CtBP-E1A blk: -2; Six1-Eya2 inh: 7
